# StopGo reporter = FMDV 2A StopGo reporter, luciferase signal. human cells with a luciferase reporter of 2A StopGo recoding; control for the full effect not named in the record. Potency, µM (titrated, usually from 57.9 µM), for the others: top-dose signal change, negative = less light. 410,000 tested, 1.2% active; active = well fitted falling curve with a large enough effect; inconclusive = small, poorly fitted or top-dose-only effect; inactive = no such curve, though single readings can be large or run the other way; tested in HEK293T cells; note: % is set by controls: 0 for no effect and ±100 for the full control effect; nearly all actives have a fitted effect of over 45% in size; luciferase light after 4 h
# RE007 growth inh = less growth of the S. pombe RE007 Vpr strain; S. pombe RE007 Vpr strain, BacTiter-Glo ATP luminescence, 24 h; control for the full effect not named in the record; Potency, µM (doses to about 92.2 µM), for the others: top-dose activity change, negative = less growth; 360,000 tested, 0.21% active; AID 651644; active = well fitted falling curve with a large enough effect; inconclusive = small, poorly fitted or top-dose-only effect; inactive = no such curve, though single readings can be large or run the other way;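 note: % is set by controls: 0 for no effect and ±100 for the full control effect; nearly all actives have a fitted effect of over 50% in size; the assay follows cell death caused by Vpr and the record does not say whether a fall means rescue or toxicity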
#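 Fission yeast strain RE007, carrying one chromosomally integrated HIV-1 vpr copy, was seeded at OD 0.01 in PMG+AL medium with 23 nL pinned compound. After 24 h at 30 °C and 99% humidity, viability was read by BacTiter-Glo luminescence.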
# Marburg entry inh = inhibitors of Marburg virus binding or cell entry | 300,000 tested, 1.8% active | Potency, µM (top dose mostly 37.8 µM), without a hit: top-dose activity change, negative = inhibition, usual class: inhibitors | AID 540276 | Marburg virus pseudotyped entry inhibition, cell reporter; control for the full effect not named in the record; about a third of the inactives were read at about 46 µM; active = well fitted inhibition curve with a large enough effect; inconclusive = small, poorly fitted or top-dose-only effect, or effect the other way; inactive = flat fitted curve, though single readings scatter; tested in HEK293 cells; about a fifth of its hits are not listed in these tables; note: % is set by controls: 0 for no effect and ±100 for the full control effect; luciferase read-out
# Cruzain Triton = cruzain (T. cruzi) inhibition with detergent; P25779; purified cruzain, Z-FR-AMC fluorescence, 0.01% Triton; Potency, µM, inactives show max response, negative = inhibition, hits mostly inhibitors; 200,000 tested, 0.43% active; AID 1478; active = well fitted curve in the direction sought with a large enough effect; inconclusive = small, poorly fitted or top-dose-only effect, or another doubt; inactive = no such curve, though single readings can be large; an effect the other way counts as inactive or inconclusive;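 note: plate controls were neutral wells for no effect and buffer without enzyme for full effect; nearly all actives have a fitted effect of over 40% in size; top concentration of the series not given in the record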
# Target sequence (P25779 123-467 limits assumed): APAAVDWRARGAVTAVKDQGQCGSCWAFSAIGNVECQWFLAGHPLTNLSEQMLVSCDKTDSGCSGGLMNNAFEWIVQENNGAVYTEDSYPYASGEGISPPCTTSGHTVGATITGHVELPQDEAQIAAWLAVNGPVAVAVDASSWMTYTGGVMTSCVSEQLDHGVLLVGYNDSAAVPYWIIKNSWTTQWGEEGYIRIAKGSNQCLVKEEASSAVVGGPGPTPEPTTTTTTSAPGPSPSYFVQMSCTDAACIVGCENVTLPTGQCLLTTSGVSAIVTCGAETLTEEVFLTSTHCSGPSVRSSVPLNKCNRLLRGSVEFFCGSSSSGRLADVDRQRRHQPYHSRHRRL
#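 Z-FR-AMC hydrolysis (2 uM substrate) by cruzain (1.5 nM) monitored kinetically at ex 360/em 450 nm after 15 min room-temperature compound exposure; 0.01% Triton X-100, pH 5.5, 5 mM DTT.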
# Cruzain noTriton = cruzain (T. cruzi) inhibition without detergent | Potency, µM, for inactives: max response, negative = inhibition, hits mostly inhibitors | purified cruzain, Z-FR-AMC fluorescence, no detergent | 200,000 tested, 2.3% active | AID 1476 | P25779; active = well fitted curve in the direction sought with a large enough effect; inconclusive = small, poorly fitted or top-dose-only effect, or another doubt; inactive = no such curve, though single readings can be large; an effect the other way counts as inactive or inconclusive;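 note: plate controls were enzyme without inhibitor for no effect and buffer without enzyme for full effect; nearly all actives have a fitted effect of over 40% in size; top concentration of the series not given in the record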
#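 Purified cruzain at 1.5 nM, pre-incubated 15 min with compound at room temperature in 100 mM sodium acetate pH 5.5, 5 mM DTT, 0.00005% Triton X-100. Reaction started with 2 uM Z-FR-AMC; AMC fluorescence increase over 60 s gives rate.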
# Lassa entry inh = inhibitors of Lassa virus binding or cell entry; Lassa virus pseudotype entry inhibition, cell reporter; control for the full effect not named in the record; Potency, µM (doses to about 37.9 µM), for inactives: at the top dose activity change, negative = inhibition, hits mostly inhibitors; 300,000 tested, 1.2% active; AID 540256; active means well fitted inhibition curve with a large enough effect; inconclusive means small, poorly fitted or top-dose-only effect, or effect the other way; inactive means flat fitted curve, though single readings scatter; tested in HEK293 cells; note: % is set by controls: 0 for no effect and ±100 for the full control effect; nearly all actives have a fitted effect of over 50% in size; luciferase read-out
# SARS PLP yeast = blocks SARS-CoV papain-like protease in a yeast assay | AID 485353 | 330,000 tested, 0.19% active | S. cerevisiae expressing SARS-CoV PLpro, growth rescue; control for the full effect not named in the record | Potency, µM (top dose mostly 32.9 µM), without a hit: at the highest dose activity, positive = growth rescue; note: 0% is about no effect; nearly all actives have a fitted effect of over 55% in size; growth read by luminescence after 48 h
# NS1 function inh = inhibitors of influenza NS1 protein function; 270,000 tested, 0.4% active; S. cerevisiae slowed by influenza A NS1, growth recovery by OD600; Potency, µM (series often up to 46.1 µM), for the others: at the highest dose activity, positive = more growth; note: actives are rising curves; nearly all actives have a fitted effect of over 50% in size
#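 OD600 was taken as the measure of yeast growth restored by compound in an NS1-expressing S. cerevisiae strain. Cells had been washed out of glucose medium and diluted 1:100 into galactose -URA medium, pH 6.0.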
# * hit, by the source's call; ? = inconclusive; . = no result given; & = joins results of further samples; [ ] = another dose, or the depositor's remark. Unless noted, calls come from the whole dose curve; as a rule, active means well fitted rising curve with a large enough effect; inconclusive means small, poorly fitted or top-dose-only effect; inactive means no such curve, though single readings can be large or run the other way. Potency is the fitted concentration of half-maximal effect.
SMILES,StopGo reporter,RE007 growth inh,Marburg entry inh,Cruzain Triton,Cruzain noTriton,Lassa entry inh,SARS PLP yeast,NS1 function inh
O=C(Cc1ccccc1)Nc1ccc(S(=O)(=O)N2CCCC2)cc1,22%,-5%,23%[46.1 µM],.,.,-17%,1%,-16%
CCCCn1c(N)c(N(CCOC)C(=O)c2ccc(COc3ccccc3)o2)c(=O)[nH]c1=O,0%,6%,-6%,.,.,0%,-2%,.
Cc1ccc2c(c1)-c1c(cnn1CC(=O)N1CCN(c3ccccc3F)CC1)CO2,-18%,.,-11%[46.1 µM],1.0%,-5%,.,.,.
COC(=O)C1=CN(Cc2cccs2)C=C(C(=O)OC)C1c1cccc(O)c1,-11%,-12%,2%[46.1 µM],.,.,7.1µM*,1%,-8%
CN(C)S(=O)(=O)c1cc(C(=O)N2CCC(C(=O)O)(c3ccccc3)CC2)ccc1Cl,13%,-7%,13%[46.1 µM],.,.,.,-1%,11%
C=CCn1c(O)c(C=Nc2ccc(OC)cc2C)c(=O)[nH]c1=O,12%,-8%,11%,-3.1%,?,10%,6%,-1%
CC(=O)c1ccc(NC(=O)c2ccc3snnc3c2)cc1,26%,19%,.,.,.,.,-3%,-4%
CCCn1c(SCC(=O)N2CCCc3ccccc32)nc2c1c(=O)n(C)c(=O)n2C,-3%,19%,-26%,2.7%,-6%,-24%,17%,?
CC(=O)c1cccc(NS(=O)(=O)c2ccc3c(c2)N(C(C)=O)CCO3)c1,44%[activator],0%,.,.,.,.,-1%,5%
Cc1cccc(N2CCN(c3ncnc4c3cnn4-c3ccc(Cl)cc3)CC2C)c1 (configuration not stated),32µM*,.,.,2.0%,11%,-1%[46.1 µM],.,.
Cc1cc(C)c(S(=O)(=O)NCC(c2ccco2)S(=O)(=O)c2ccccc2)c(C)c1 (configuration not stated),51%[activator],.,.,0.1%,-2%,?,.,.
CCOC(=O)N1CCN(C(=O)c2cc3c(-c4ccc(Cl)cc4)nn(C)c3s2)CC1,?,-2%,.,-4.2%,?,.,-3%,-65%
COc1ccc(Br)c(C(=O)NCCC(C)C)c1,-11%,-2%,?,-1.6%,2%,18%,30%,22%
Cc1cc(Cl)ccc1OCC(=O)N(Cc1ccco1)Cc1ccccc1F,?,.,-19%[46.1 µM],-7.9%,-13%,4%[46.1 µM],.,.
CCN(CC)CCN1C(=O)C(=O)/C(=C(/O)c2ccc(OC(C)C)cc2)C1c1cccs1 (configuration not stated),21%,-6%,6%[46.1 µM],.,.,6%,0%,0%
CCOC(=O)c1ccc(NC(=O)CC2SCCNC2=O)cc1 (configuration not stated),19%,6%,9%,1.1%,-2%,44%,-4%,-1%
Cc1ccccc1NC(=O)CSCC(=O)Nc1ccccc1C,-10%,-14%,-7%,1.5%,-2%,0%,-6%,5%
COc1cc2ncc(C(=O)c3ccc(C)cc3)c(N3CCCCC3)c2cc1OC,0%,.,?,-11%,-2%,.,.,.
Cc1cccc(-c2ncc(CN3CCCC(CO)(Cc4cccc(Cl)c4)C3)cn2)c1 (configuration not stated),-3%,-2%,.,.,.,.,-2%,-12%
O=c1[nH][nH]c(=O)n1-c1ccccc1,5%,8%,?,.,.,20%[46.1 µM],2%,0%
Cc1ccc(SCC(=O)N2CCN(c3ccc(F)cc3)CC2)cc1,-2%,9%,?,.,.,-2%[46.1 µM],.,.
O=C(COC(=O)c1ccc(S(=O)(=O)Nc2ccccc2)cc1)NCC1CCCO1 (configuration not stated),-4%,-8%,.,.,.,.,0%,-66%
Cc1cccc(N2C(=O)CCC2=O)n1,0%,0%,-7%,-1.2%,5%,-17%,-7%,1%
CC(C)=CCSc1nnc(CCNC(=O)OC(C)(C)C)o1,15%,6%,6%,1.8%,6%,6%,-6%,-6%
CC(=O)Nc1ccc(OCC(O)Cn2ccnc2)cc1 (configuration not stated),?,7%,.,.,.,.,5%,-2%
Cc1ccsc1/C=N/Nc1nc2ccccc2[nH]1,0%,-8%,.,-24%,-29%,.,1%,-22%
Cc1ccc(N2CC(NC(=O)/C=C\c3ccc4c(c3)OCO4)CC2=O)cc1C (configuration not stated),-21%,.,.,-13%,-7%,-21%[46.1 µM],.,.
CCn1c(=N)c(C(=O)NCCCOC)cc2c(=O)n3cccc(C)c3nc21,2%,2%,?,32µM*,?,0%,1%,4%
Cc1ccc2c(CN3CCCc4ccccc43)cc(=O)oc2c1C,-5%,-1%,?,-4.0%,?,?,-10%,-34%
CC(=O)C1=C(O)C(=O)N(c2cccc(Br)c2)C1c1ccc(Br)cc1 (configuration not stated),-7%,23%,.,.,.,.,3%,17%
O=C(NCc1ccncc1)C(=O)NCC1OCCCN1S(=O)(=O)c1ccc(F)cc1 (configuration not stated),-13%,8%,?,.,.,-1%,?,18%
CC(C)c1ccc(NC(=S)NNC(=O)C2CC2)cc1,2%,1%,.,.,.,.,1%,2%
CCOC(=O)c1c(NC(C)=O)sc2c(O)c(Br)ccc12,1%,6%,12%,2.1%,19%,9%,11%,-5%
CCCCn1c(=O)c(CCC(=O)OCC(=O)Nc2ccc(F)c(Cl)c2)nc2ccccc21,-13%,6%,?,-8.1%,21%,10%,-6%,14%
Clc1ccc(C2[C@H]3CN(Cc4cccnc4)[C@H](c4ccccc4)C34CC2(c2ccccc2)C4)cn1 (some centres not stated),?,-18%,.,4.8%,-7%,.,-13%,4%
Cc1ccc(Cl)cc1NC(=O)c1cnn2c1NC(c1ccco1)CC2C(F)(F)F (configuration not stated),?,13%,?,-5.7%,-2%,?,-35%,0%
O=C(/C=C\c1ccco1)Oc1cccc2cccnc12,9%,?,?,.,.,27%,2%,.
CCc1ccccc1NC1c2ccccc2C(=O)N1c1cc(C)ccn1 (configuration not stated),-16%,13%,.,-5.7%,4%,.,-4%,-4%
COc1ccc(C(=O)NCc2nnc(SCC(=O)Nc3cc(Cl)ccc3OC)o2)cc1,7%,-8%,.,.,.,.,5%,0%
Cc1c(NC(=O)c2ccccc2)cccc1[N+](=O)[O-],-25%,.,16%,-3.4%,-16%,-16%,14%,-3%
COc1cc(/C=C/c2nc3ccccc3c(=O)[nH]2)cc(Br)c1O,23%,4%,-9%[46.1 µM],.,.,-17%[46.1 µM],10%,10%
CN(C)c1ccc(NC(=O)/C=C/c2c(Cl)cccc2Cl)cc1,22%,-13%,?,-0.4%,-27%,?,-15%,17%
CN1C(=O)CSc2ccc(NC(=O)N3CCc4ccccc43)cc21,.,-6%,?,6.7%,6%,-16%,-8%,-89%
COc1cccc2sc(Nc3nnc(-c4ccccc4Cl)o3)nc12,11%,-17%,?,0.7%,?,?,-36%,-127%
COc1ccc(C2CC(=O)C(C3NCCc4ccccc43)=C(O)C2n2cncn2)cc1 (configuration not stated),-15%,5%,?,.,.,2%,0%,.
O=C(CN1C(=O)NC2(CCCCC2)C1=O)Nc1ccc(F)cc1,-1%,-5%,4%[46.1 µM],.,.,14%[46.1 µM],1%,.
CCN(CC)c1ncnc2c1sc1nc(N3CCOCC3)c3c(c12)CCC3,.,.,-2%,-2.1%,?,.,-9%,0%
COCCSc1ccccc1C(=O)NCc1ccc(S(N)(=O)=O)cc1,-3%,10%,1%,-2.1%,-20%,13%[14.3 µM],11%,14%
CCC(C(=O)NCCc1ccc(Cl)cc1)n1nc(C)c2c(C)n(-c3ccccc3)nc2c1=O (configuration not stated),?,.,.,-5.5%,9%,-28%[46.1 µM],.,.
CCCc1cc(=O)[nH]c(SCC(=O)Nc2nonc2N)n1,.,-2%,2%,1.3%,-1%,15%,-6%,3%

# A few values from the entries so far:
# CN(C)c1ccc(NC(=O)/C=C/c2c(Cl)cccc2Cl)cc1 @ NS1 function inh = 17%
# COc1ccc(C2CC(=O)C(C3NCCc4ccccc43)=C(O)C2n2cncn2)cc1 (configuration not stated) @ SARS PLP yeast = 0%

# Continued.
SMILES,StopGo reporter,RE007 growth inh,Marburg entry inh,Cruzain Triton,Cruzain noTriton,Lassa entry inh,SARS PLP yeast,NS1 function inh
O=c1c([N+](=O)[O-])c(O)c2ccccc2n1Cc1ccccc1,-1%,5%,.,.,.,.,2%,3%
O=C(O)CCS(=O)(=O)Cc1ccccc1F,-13%,-6%,20%,1.0%,-8%,15%,11%,?
COc1cc(OC)cc(C(=O)N(CN2CCCC2=O)c2ccccc2OC)c1,0%,-12%[3.69 µM],-46%,1.9%,6%,-19%,6%,3%
Cc1c(C(=O)N2CCC3(CC2)OCCO3)oc2ccc(S(=O)(=O)N3CCCCC3)cc12,2%,-7%,13%&9%,-0.3%,?,-12%&3%,-42%,-3%
O=C(/C=C/c1ccccc1)NC1CC2CCC1C2 (configuration not stated),56%[activator],-7%,?,-1.4%,-8%,?,-50%,2%
FC(F)(F)c1cccc(Sc2nc(-c3ccccc3)nnc2C(F)(F)F)c1,?,-7%,-6%,1.2%,1%,?,5%,5%
Cc1noc(/C=C/c2ccccc2F)c1S(=O)(=O)N1CCC(C(=O)N2CCN(C)CC2)CC1,-6%,-3%,.,.,.,.,2%,-10%
FC(F)(F)c1ccccc1NC1=NCCC1,3%,0%,?,.,.,-3%,4%,.
CC1=C/C(=N\OS(=O)(=O)c2ccccc2)C(C(C)C)=CC1=O,28µM*,?,?,-5.4%,-6%,?,-92%,-61%
COC(=O)CSc1nnc(-c2ccc(S(=O)(=O)N3CCCC3)cc2)o1,0%,-13%,3%[46.1 µM],.,.,13%,-4%,1%
CC(O)[C@H](NC(=O)C1CCN(C(=O)[C@H](Cc2ccccc2)NC(=O)OC(C)(C)C)CC1)C(=O)O (some centres not stated),4%,-6%,.,.,.,.,-1%,3%
Cc1cc(C(=O)CSc2nnc(N)s2)c(C)n1Cc1ccco1,63%[activator],7%,?,.,.,4%,1%,.
CC(NC(=O)CN1C(=O)NC(Cc2ccccc2)(Cc2ccccc2)C1=O)C12CC3CC(CC(C3)C1)C2 (configuration not stated),-4%,-6%,?,0.2%,?,?,-8%,23%

# From PubChem BioAssay
